Source: PubChem
Rango dissoc inh: inhibition of RanGTP-driven Rango-importin beta dissociation. actives 0.071% (n = 340,000). Potency, µM (titrated, usually from 46.1 µM), without a hit: top-dose activity change, negative = inhibition. O95149+P62826. Biochemical FRET Rango-importin beta, RanGTP-induced dissociation; active means falling FRET ratio curve, often poorly fitted, with flat reads before Ran was added; inconclusive means other falling curves, or compound fluorescence or quenching; inactive means flat or rising ratio curve;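 note: potency is the fitted concentration of half-maximal effect; % of control where 0% means no effect; nearly all actives have a fitted effect of over 45% in size; -100% = wells without RanGTP and RCC1; the record marks most hits as doubtful in a second field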
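Quantitative HTS using a FRET biosensor: 0.1 uM Rango, 0.25 uM importin beta, 0.6 uM Ran, 2 mM GTP, 0.2 uM RCC1 final, PBS with DTT, Tween-20 and BSA. Post-read taken 45 min after Ran addition.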
miR-21 reporter: raises the signal of a miR-21 reporter; AID 2288; 340,000 tested, under 10 active; HeLa miR-21 FLuc reporter, luciferase, 48 h; Potency, µM (series often up to 38.3 µM), for inactives: at the highest dose reporter change, positive = more light; active = well fitted rising curve with a large enough effect; inconclusive = small, poorly fitted or top-dose-only effect; inactive = no such curve, though single readings can be large or run the other way;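 note: % of control where 0% means no effect; miR-21 action dims this reporter so a rising signal means less miR-21 action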
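HeLa miR-21-FLuc reporter line, endogenous miR-21; 2000 cells/well in DMEM/10% FBS; compound titration up to ~40uM final, 48 h, 37 degree Celsius; luciferase detection reagent, 15 min lysis, CCD luminescence.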
GLA inh pH 4.5: alpha-galactosidase A (human) inhibition, pH 4.5; purified enzyme, 4-MU-alpha-Gal fluorescence, pH 4.5; activity change, negative = inhibition, % at 105 µM; 230,000 tested, under 10 active; AID 1467; inconclusive = small, poorly fitted or top-dose-only inhibition, or a rising curve; inactive = flat fitted curve, though single readings scatter; no compound was filed as active;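 note: 0% = full activity with enzyme and -100% = basal without enzyme; dose as in the result columns while the protocol names 77 µM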
Target sequence (P06280 whole entry, looked up): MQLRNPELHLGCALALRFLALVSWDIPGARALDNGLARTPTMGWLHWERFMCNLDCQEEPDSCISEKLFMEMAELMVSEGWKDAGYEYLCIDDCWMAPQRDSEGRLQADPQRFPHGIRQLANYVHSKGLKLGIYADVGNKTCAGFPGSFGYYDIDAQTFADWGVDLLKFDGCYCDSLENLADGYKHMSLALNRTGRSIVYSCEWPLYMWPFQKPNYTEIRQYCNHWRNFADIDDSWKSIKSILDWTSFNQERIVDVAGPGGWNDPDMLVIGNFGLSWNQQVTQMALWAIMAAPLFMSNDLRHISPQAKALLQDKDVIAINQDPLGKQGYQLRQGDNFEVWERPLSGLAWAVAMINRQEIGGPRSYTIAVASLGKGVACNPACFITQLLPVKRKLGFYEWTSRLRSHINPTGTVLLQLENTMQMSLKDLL
Rango-impB inh: inhibitors of Rango-importin beta complex formation; Q14974; Rango CFP/YFP FRET sensor + importin beta, 45 min; Potency, µM (series often up to 92.2 µM), without a hit: at the top dose inhibition of complex formation; actives 0.031% (n = 340,000); AID 540263; active = rising FRET ratio curve, often small or poorly fitted; inconclusive = mostly compound fluorescence or quenching in the first reads; inactive = flat curves in all reads;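 note: potency is the fitted concentration of half-maximal effect; 0% = DMSO wells and 100% = buffer wells lacking importin beta; nearly all actives have a fitted effect of over 15% in size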
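FRET biosensor (snurportin 1 IBB flanked by EYFP and cerulean), 50 nM, with compound 5 min, then 0.125 microM importin beta in PBS, 1 mM DTT, 0.02% Tween-20, 0.1% BSA. CFP/YFP ratio read after 45 min at room temperature; pre-read flags interference.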
Numbers without * were called inactive; ? = inconclusive; nt = not tested or not shown; & = joins results of further samples.

SMILES	Rango dissoc inh	miR-21 reporter	GLA inh pH 4.5	Rango-impB inh
COC(=O)C1(C)NC(c2ccccc2F)C2C(=O)N(c3ccccc3)C(=O)C21 (centres undefined)	-4%	1%	nt	-2.0%
Cc1noc(C)c1S(=O)(=O)NCCN1CCN(c2ccccc2)CC1	-9%	-5%	9	-2.1%
CC(C)(C)c1ccc(C(=O)NCC(=O)N2CCCCCC2)cc1	-21%	-24%	nt	-3.4%
O=c1[nH]c(CSc2nnc(-c3ccccc3)n2C2CCCCC2)nc2ccccc12	-14%	0%	1	-1.0%
Cc1cccc(N=Nc2ccc(O)c3ncccc23)c1	-13%	?	-18	-2.2%
CC(C)(C)c1ccccc1OCC(=O)NCCC(=O)O	41%	-3%	-2	-0.5%
CCCCSCCCNC(=O)c1cn(CC)c2ccc(S(=O)(=O)N3CCOCC3)cc2c1=O	-7%	-9%&-12%	nt	0.1%
CCOC(=O)C1=C(COC(=O)CCNS(=O)(=O)c2ccc(C)c(C)c2)NC(=O)NC1C (centres undefined)	-5%	nt	nt	-0.6%
Cc1csc(CN(C)C(=O)CC2C(=O)NCCN2CC(C)(C)C)n1 (centres undefined)	-10%	0%	9	?
N=c1ccn(O)cc1CCc1ccccc1	27%	nt	nt	-2.3%
O=C(NCCc1ccccc1)c1c[nH]c2c(F)cccc2c1=O	-6%	-34%	nt	0.5%
Cn1c(=S)oc2ccccc21	-2%	-3%	2	-0.9%
O=C(OCC(=O)N1CCCC1=O)c1nc(Cl)c(Cl)c(Cl)c1Cl	0%	24%	nt	6.3%
CN1CCN(CC(C)(C)NS(=O)(=O)c2ccccc2)CC1	-1%	nt	nt	1.8%
COc1cc(NC(=S)NNC(=O)CC(C)C)c(OC)cc1Cl	-17%	0%	0	-0.9%
Cc1ccc2c(c1)C1CN(C)CCC1N2C(=O)COc1ccccc1F (centres undefined)	-17%	-6%	4	-3.7%
CN(C)S(=O)(=O)N(Cc1ccc(Br)cc1)c1ccccc1	15%	1%	1	2.1%
COc1cc(/C=C/c2cccc[n+]2C)ccc1OCC(=O)Nc1cccc(Cl)c1	-23%	16%	nt	?
Cn1cc(SCC(=O)N2CCOCC2)c2ccccc21	14%	-30%	4	-0.3%
COc1cc(C(=O)NNC(=S)NC(=O)c2ccc(Cl)cc2)cc(OC)c1OC	29%	0%	8	-3.1%
CN(C(=O)c1cccc(NC(=O)Cc2cccc(NC(=O)C3CCN(C(=O)C4CCCC4)CC3)c2)c1)C1CC1	-4%	nt	nt	2.4%
CCC(C)(C)NC(=O)C(c1cccs1)N(C(=O)c1ccn[nH]1)c1cccc(OC)c1 (centres undefined)	1%	-3%	5	-1.0%
COc1ccc(C)c2sc(N(CCCN(C)C)C(=O)CS(=O)(=O)c3ccc(F)cc3)nc12	-12%	nt	nt	4.4%
Cc1ccc(NCC(=O)Nc2cccc(S(=O)(=O)N(C)C)c2)cc1S(=O)(=O)N1CCCCCC1	23%	nt	nt	-0.3%
COc1ccc(-n2c(=O)c(CCC(=O)N3CCC(C)CC3)nc3ccccc32)cc1	-13%	nt	nt	-3.8%
CCOC(=O)c1[nH]c(C)c(C(=O)NCc2cccnc2)c1C	0%	-5%	-3	0.1%
Cc1cc(Oc2ccc(=O)n(C)n2)nc(Oc2ccc(=O)[nH]n2)n1	1%	-1%	2	0.5%
Cc1cccc2cncc(OCc3nnc(SC(F)F)n3C)c12	3%	0%	5	1.1%
Cc1nn(CCC(=O)Nc2cccc(C#N)c2)c(C)c1S(=O)(=O)N1CCCCC1	-7%	2%&16%	nt	4.0%
C/C(Cc1ccccc1)=N\NC(=O)CNC(=O)c1ccccc1F	21%	0%	nt	-0.1%
Cc1cccc(COCC(CC(C)C)N2CCN(C(=O)c3ccc(C(F)(F)F)cc3)CCC2=O)c1 (centres undefined)	1%	3%	-5	-1.4%
N#C/C(=C\c1cn(-c2ccccc2)nc1-c1cc2ccccc2o1)c1nc2ccccc2[nH]1	?	-37%	-15	?
CCOC(=O)CN(C(=O)Cn1nnc(-c2ccc(OC)cc2)n1)C(C(=O)NC1CCCC1)c1ccc(F)cc1 (centres undefined)	?	-9%	-12	5.0%
Cn1nnnc1SCc1ccccc1[N+](=O)[O-]	6%	-4%	-11	-3.3%
COc1ccc(CC(=O)OCn2nnc3ccccc3c2=O)cc1	-1%	-5%	-17	4.2%
CC(C)CN(C(=O)COC(=O)c1ccccc1SCC(=O)N1CCCC1)C1CCS(=O)(=O)C1 (centres undefined)	0%	nt	nt	-2.5%
COc1ccc(-c2csc(CCN3N=C(C)CC3=O)n2)cc1	-12%	14%	7	-0.8%
COc1cccc(C(=O)CN2C3=NCCCN3c3ccccc32)c1	-19%	-5%	-5	-1.6%
O=S1(=O)C[C@@H](N2CCOCC2)[C@H](N2CCOCC2)C1	3%	1%	-4	-0.4%
C/C(=N\NC(=O)c1cccc(O)c1)c1cccc(NC(=O)c2ccc(F)cc2)c1	90%	-37%	nt	2.2%

Molecules from the list above with a cyano group, in the order listed:
SMILES	Rango dissoc inh	miR-21 reporter	GLA inh pH 4.5	Rango-impB inh
Cc1nn(CCC(=O)Nc2cccc(C#N)c2)c(C)c1S(=O)(=O)N1CCCCC1	-7%	2%&16%	nt	4.0%
N#C/C(=C\c1cn(-c2ccccc2)nc1-c1cc2ccccc2o1)c1nc2ccccc2[nH]1	?	-37%	-15	?

(more compounds)
SMILES	Rango dissoc inh	miR-21 reporter	GLA inh pH 4.5	Rango-impB inh
O=C(CN(C(=O)CNS(=O)(=O)c1ccccc1)c1ccc(Cl)cc1)NCC1CCCO1 (centres undefined)	47%	-5%	nt	-0.9%
Cc1occc(=O)c1OCc1c(Cl)cccc1Cl	5%	-7%	nt	-0.1%
O=C(O)c1cc(-c2ccc(Br)s2)nc2ccccc12	?	-24%	nt	?
Cc1ccc(S(=O)(=O)Nc2c(C)n(C)n(-c3ccccc3)c2=O)cc1	-13%&10%	2%&-2%	-10&-5	3.3%&4.1%
Cc1nnc(SCC(=O)N2CCOCC2)[nH]c1=O	-8%	-5%	4	0.7%
COc1cc(NC(=O)c2cccs2)c(OC)cc1NC(=O)CCC(=O)Nc1ccc(C)cc1	-1%	-4%	nt	1.1%
Cc1cccc(C)c1NC(=O)CN(C)C(=O)Cn1c(=O)cnc2ccccc21	0%	1%	nt	2.0%
O=C(NNc1ccccc1F)C1CCC1	-13%	-4%	-1	?
COc1ccc(OC)c(-c2cc(C3CCN(c4ncccc4[N+](=O)[O-])CC3)[nH]n2)c1	-6%	-11%	-16	0.0%
COc1ccc(C(NC(=O)c2ccco2)c2ccc(OC)c(OC)c2)cc1 (centres undefined)	-3%	-11%	-9	-0.8%
O=C(O)c1cc(S(=O)(=O)N2CCCCCC2)c(Cl)cc1Cl	14%	-1%	4	-0.1%
Fc1ccc(C2=CC(c3ccco3)n3nnnc3N2)cc1 (centres undefined)	-18%	0%	1	4.2%
CCC1(c2ccc(Cl)cc2)NC(=O)N(CC(=O)NC2CCCCCC2)C1=O (centres undefined)	1%	nt	nt	2.7%
COc1ccc(OC)c(NC(=O)CSc2nnnn2C)c1	10%	1%	9	-1.3%
CN1CCN(C(=O)CNC(=O)C23CC4CC(CC(C4)C2)C3)CC1	-10%	nt	nt	-0.7%
NC(=S)N/N=C/c1ccc2c(c1)OCCO2	4%	-32%	6	2.7%
Cc1cc(-c2nn(C)c(=O)c3ccccc23)cc(C)c1O	0%	-14%	1	0.5%
C=CCn1c(SCC(=O)NC2CCCCC2)nnc1C1CCCCC1	-10%	-1%	5	-3.7%
O=C(NCc1ccco1)[C@@H]1CCCN1C(=O)c1cccs1	-2%	-2%	0	3.5%
Cc1cc(C)c2[nH]c(=O)c(CN(Cc3cccs3)C(=S)NCc3ccco3)cc2c1	9%	6%	1	-0.5%

Compounds from the list above that have bromine:
SMILES	Rango dissoc inh	miR-21 reporter	GLA inh pH 4.5	Rango-impB inh
CN(C)S(=O)(=O)N(Cc1ccc(Br)cc1)c1ccccc1	15%	1%	1	2.1%
O=C(O)c1cc(-c2ccc(Br)s2)nc2ccccc12	?	-24%	nt	?

Following part
SMILES	Rango dissoc inh	miR-21 reporter	GLA inh pH 4.5	Rango-impB inh
CN1CCN(CC#CCn2c3ccccc3c3ccccc32)CC1	-19%	-13%	1	2.1%
CC(=O)N1Cc2ccccc2CC1C(=O)N1CCN(c2ccccc2)CC1 (centres undefined)	-4%	0%	-12	0.0%
Oc1ccc(/C=N/NC(=S)Nc2cccnc2)cc1	7%	-5%	-8	-0.7%
COC(=O)c1ccccc1NC(=O)NCCc1ccccc1OC	15%	-48%	6	-1.3%
O=C(O)CCC(=O)OCCN(Cc1ccc(Oc2ccc([N+](=O)[O-])cc2)cc1)C(=O)C(Cl)Cl	0%	nt	nt	-1.4%
CCCC(=Nc1ccccc1)C1=C(O)C(C(=O)OC)C(C)(C)CC1=O (centres undefined)	10%	-6%	-18	1.5%
CCc1nc2nc(C)c(NS(=O)(=O)c3ccc(C4CCCCC4)cc3)c(=O)n2[nH]1	-9%	-1%	nt	3.9%
O=C(Nc1ccc(N2CCOCC2)cc1)c1cc(-c2ccncc2)nc2ccccc12	8%	11%	-5	-0.5%
Cc1nn(CC#N)c(=O)n1-c1ccccc1	-7%	-3%	4	-1.4%
CCOC(=O)c1c(N)sc2c1CCCC2	0%	3%	2	-1.1%
Cc1cccc(C(=O)NC2CCN(C(=S)NCc3ccco3)CC2)c1	-8%	2%	-15	2.1%
C#C[C@]1(O)CC[C@H]2[C@@H]3CCc4cc(O)ccc4[C@H]3CC[C@@]21C	-10%	13%	0	-2.3%
CSc1ccccc1NC(=O)CN(C)C(=O)C1CCN(C(=O)Nc2ccccc2)CC1	-6%	nt	nt	-0.1%
COc1ccc(C(=O)N2CCOC2CNC(=O)C(=O)NCc2ccc3c(c2)OCO3)cc1 (centres undefined)	-25%	0%	7	-6.1%
NNc1nc2ccc(F)cc2s1	5%	-41%	2	?
COC(=O)COc1ccc(Cl)cc1C1Nc2ccccc2C(=O)N1c1ccc(OC)cc1 (centres undefined)	0%	-36%	-5	-0.4%
O=C(O)c1cn(Cc2ccccc2Cl)c2ccc(S(=O)(=O)N3CCOCC3)cc2c1=O	-6%	2%	-19	2.5%
CCN(CC)S(=O)(=O)c1ccc(C(=O)NC(=S)N(CCO)Cc2ccccc2)cc1	-6%	-1%	nt	0.1%
CCc1ccccc1NC(=O)c1ccc(Cn2cc([N+](=O)[O-])cn2)cc1	9%	-7%	5	?
CCCCNc1nc2c(c(=O)n(C)c(=O)n2C)n1CCC	31%	-10%	3	-0.4%
CC(CCc1ccco1)NC(=O)Nc1cccc(F)c1 (centres undefined)	?	-27%	5	1.9%
O=C(Nc1cccc2ncccc12)c1ccc(OCc2ccccc2)cc1	22%	3%	-10	4.2%
CC1CN(CC(=O)Nc2nc3ccccc3s2)CC(C)O1 (centres undefined)	-27%	-17%	nt	-1.8%
CCCOc1ccc(/C=C/C(=O)NC2CCCCC2)cc1OC	-6%	-2%	nt	-1.8%
CC(C)COc1ccc(C(=O)Nc2ccc([N+](=O)[O-])cc2)cc1	-2%	-24%	2	0.4%
Cc1cc(C)cc(C(=O)N(c2ccccn2)C(C)c2ccco2)c1 (centres undefined)	0%	7%	-2	7.1%
CCOC(=O)CC(Nc1nc(N2CCOCC2)nc(N2CCOCC2)n1)c1ccccc1Cl (centres undefined)	-2%	1%	1	-1.0%
Cn1c(CC(=O)Nc2cccc(Cl)c2Cl)nnc1SCC(=O)NC1=NCCS1	8%	4%	nt	2.1%
CC1CCC(NC(=O)Cn2c3c(c(-c4ccccc4Cl)cc2=O)CCC3)CC1 (centres undefined)	-12%	3%	4	-3.2%
Cc1cc(OCC(=O)NC2CC(C)(C)NC(C)(C)C2)c2c(C)cc(=O)oc2c1	-5%	0%	nt	1.7%
O=C(OCc1nnc(-c2cccs2)o1)c1cccnc1Cl	15%	nt	nt	0.1%
COc1c(C)cc(C(=O)C2CCCN(C(=O)c3csc(C)n3)C2)cc1C (centres undefined)	-6%	13%	nt	-0.4%
COC(=O)CC1C(=O)NCCN1C(=O)c1ccc2oc(C(C)C)nc2c1 (centres undefined)	-16%	-4%	nt	-1.4%

An excerpt; count on the stated rates, not on these rows.
